NPR1 antag = Natriuretic polypeptide receptor (hNpr1) antagonism - Primary qHTS; HEK293 hNpr1 GloSensor cGMP, ANP-stimulated luminescence; Potency, µM (highest dose often 46.3 µM), for inactives: at the top dose activity change, negative = inhibition, actives largely listed as inhibitors; actives 1.6% (n = 76,000); active = well fitted inhibition curve with a large enough effect; inconclusive = small, poorly fitted or top-dose-only effect; inactive = no such curve, though single readings can be large or run the other way;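 also: nearly all actives have a fitted effect of over 60% in size; nearly all hits also lower the signal before the agonist is added; a reference antagonist and vehicle were the controls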
Target sequence (P16066 whole entry, looked up): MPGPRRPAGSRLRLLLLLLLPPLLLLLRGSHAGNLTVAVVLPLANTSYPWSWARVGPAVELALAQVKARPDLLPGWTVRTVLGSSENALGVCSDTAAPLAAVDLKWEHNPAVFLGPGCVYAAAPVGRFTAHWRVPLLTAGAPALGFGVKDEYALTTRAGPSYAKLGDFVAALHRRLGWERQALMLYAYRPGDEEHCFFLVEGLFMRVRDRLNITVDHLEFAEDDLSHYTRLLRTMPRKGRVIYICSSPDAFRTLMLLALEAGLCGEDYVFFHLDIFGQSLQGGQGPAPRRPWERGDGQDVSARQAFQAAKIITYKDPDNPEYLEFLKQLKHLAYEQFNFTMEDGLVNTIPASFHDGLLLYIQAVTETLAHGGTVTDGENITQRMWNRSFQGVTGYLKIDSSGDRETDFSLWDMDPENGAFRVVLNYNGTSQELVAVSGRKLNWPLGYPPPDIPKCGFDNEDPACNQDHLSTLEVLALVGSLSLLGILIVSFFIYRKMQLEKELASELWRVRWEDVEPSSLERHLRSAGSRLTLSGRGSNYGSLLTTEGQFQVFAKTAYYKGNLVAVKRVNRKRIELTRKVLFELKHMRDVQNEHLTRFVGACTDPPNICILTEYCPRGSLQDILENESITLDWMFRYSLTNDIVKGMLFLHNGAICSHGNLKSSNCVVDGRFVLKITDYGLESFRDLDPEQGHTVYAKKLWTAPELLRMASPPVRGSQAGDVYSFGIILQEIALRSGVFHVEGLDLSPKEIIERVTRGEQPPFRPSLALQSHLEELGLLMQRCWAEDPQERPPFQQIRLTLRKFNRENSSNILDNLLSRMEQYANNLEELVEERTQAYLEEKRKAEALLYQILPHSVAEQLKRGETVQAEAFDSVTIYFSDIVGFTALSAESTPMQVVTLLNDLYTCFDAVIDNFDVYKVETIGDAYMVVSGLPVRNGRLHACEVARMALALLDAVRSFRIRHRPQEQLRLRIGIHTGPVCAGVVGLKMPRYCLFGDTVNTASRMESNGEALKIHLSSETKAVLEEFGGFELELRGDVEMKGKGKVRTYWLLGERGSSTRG
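HEK293 cells stably expressing human Npr1 and cGMP GloSensor pGS-40F, loaded 2 h with 2% GloSensor reagent, given compound 30 min at room temperature. Luminescence read before and 20 min after 0.1 nM hNppA.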
Starred values were filed as active, the others as inactive; [ ] = dose if it differs, or a comment. % is scaled to controls: 0 for no effect and ±100 for the full control effect; potency is read from the fitted curve at half-maximal effect.

How did CCN(CC)c1ccc(C(=O)N2CCCC2c2nncn2Cc2ccncc2)cc1 (centres undefined) do in these assays?
NPR1 antag: -1%

Results for O=C(NC1CCCCC1)N1CCCCCC1c1nc(-c2cccnc2)no1 (centres undefined) ?
NPR1 antag: -4%

How did Cn1cc(CN2CC[C@H](c3nc4ccccc4[nH]3)C2)c2ccccc21 do in these assays?
NPR1 antag: -15%[70.6 µM]

What do the screens show for `COC(=O)N1CCC2(C1)N=C(c1ccccn1)C(=O)N2` (centres undefined)?
NPR1 antag: 0%[70.6 µM]

How did COc1cccc(C(=O)N[C@@H]2CN(S(C)(=O)=O)C[C@H]2CN(C)C)c1 do in these assays?
NPR1 antag: 5%

Results for CC(C)C[C@@H]1N[C@H](C(=O)NC2CCCC2)Cc2cn(CC3CC3)c3cccc1c23 ?
NPR1 antag: 4%[70.6 µM]

How did COc1ccccc1C(=O)N1CCC2(CC1)NC(=O)N(c1ccc(F)cc1)N2 do in these assays?
NPR1 antag: -5%

Results for CCN(CC)c1ncccc1CNC(=O)c1c(C)noc1C ?
NPR1 antag: -1%

What do the screens show for `Cc1cc(Cl)ccc1C(=O)N1Cc2cnn(Cc3ccc(F)cc3)c2C1`?
NPR1 antag: inconclusive

How did O=C(N[C@H]1CCN2C(=O)c3cc(-c4cccs4)ccc3NC(=O)[C@H]12)c1cccs1 do in these assays?
NPR1 antag: -20%[70.6 µM]

How did COC[C@H]1CCCN1Cc1cn(-c2ccccc2C)nc1-c1ccc(OC)c(F)c1 do in these assays?
NPR1 antag: -5%

How did Cn1ncc2c(N3CCN(S(N)(=O)=O)CC3)nc(-c3cccnc3)nc21 do in these assays?
NPR1 antag: 5%

How did CC(Cc1cccnc1)Nc1ccc(-c2nccn2C)nn1 (centres undefined) do in these assays?
NPR1 antag: -8%

Results for O=C(c1nccc2ccccc12)N1CCC(c2noc(C3CC3)n2)C1 (centres undefined) ?
NPR1 antag: -2%

Results for CO[C@H]1C(=O)N(C(C)C)[C@H]1C1CCN(C(=O)c2c[nH]c3ccccc23)CC1 ?
NPR1 antag: 4%

Results for CCC1CN(C(=O)c2cnn(C)c2)CCC(=O)N1Cc1ccccc1 (centres undefined) ?
NPR1 antag: 3%

How did Cc1ccc(NC(=O)N(C)CC2CCOC2)cc1F (centres undefined) do in these assays?
NPR1 antag: 4%

What do the screens show for `COc1ccc(-c2noc(-c3cccn3CC(=O)NCc3ccc(F)cc3Cl)n2)cc1F`?
NPR1 antag: -1%

Results for O=C1CC(c2ccccc2)N(C(=O)CNC(=O)Cn2c(=O)oc3ccccc32)CCCCCCN1 (centres undefined) ?
NPR1 antag: 2%

What do the screens show for `CN(C)C(=O)[C@@H]1CN(Cc2ccc(F)cc2F)C[C@H]1CO`?
NPR1 antag: -2%

How did OC[C@@H]1CN(Cc2ccccn2)C[C@H]1c1nc(-c2cccnc2)no1 do in these assays?
NPR1 antag: -13%

What do the screens show for `O=C(NC[C@H]1COCc2nc3cc(C(F)(F)F)ccc3n21)c1cnccn1`?
NPR1 antag: 2%[70.6 µM]

How did Cc1cc(C)nc(CNC(=O)c2ccc3nc(-c4ccc(F)cc4)cn3c2)n1 do in these assays?
NPR1 antag: -1%

What do the screens show for `Cc1cccc(OCC(=O)NC2CCN(C(=O)c3cc4c(=O)[nH]c(C)cn4n3)CC2)c1`?
NPR1 antag: 0%

How did COC(=O)C1=C(C)NC(=O)NC1c1ccc(C(C)C)cc1 (centres undefined) do in these assays?
NPR1 antag: -1%

Results for O=C(c1ccoc1)N1CC(Oc2cccc(-c3nc(-c4ccccc4)no3)c2)C1 ?
NPR1 antag: 5%

What do the screens show for `COc1cc(Cl)ccc1C(=O)N1CCC(Oc2ccc(C(=O)N(C)C)cn2)CC1`?
NPR1 antag: 7%

Results for CC1=C[C@@H](CN2CCN(c3ncccn3)CC2)[C@H](C(C)C)C[C@H]1Cc1nnc(COc2ccc(F)cc2)o1 ?
NPR1 antag: -25%

Results for COc1ccc(C(=O)N2CCc3ccc(C(=O)NCc4cccc(F)c4)cc32)cc1 ?
NPR1 antag: -26%

Results for NC(=O)CNC(=O)C1=C[C@@H](NC(=O)Nc2ccc(OC(F)(F)F)cc2)[C@@H](O)[C@H](O)C1 ?
NPR1 antag: 2%[70.6 µM]

Results for CS(=O)(=O)N1CCC(OC2CCN(C(=O)NCc3cccc(F)c3)CC2)CC1 ?
NPR1 antag: 0%

How did CC1(C(=O)NCCCc2ccccc2)CCCCC(=O)N1 (centres undefined) do in these assays?
NPR1 antag: 2%

Results for CC1=C(C(=O)OC(C)C)C(c2ccccc2)NC(=O)N1 (centres undefined) ?
NPR1 antag: -13%

How did O=C(c1cc(F)ccc1F)N1CCC2(CC1)N=C(c1ccc(Cl)cc1)NO2 do in these assays?
NPR1 antag: 16µM*

How did CCn1ccc(C(=O)N2C[C@@H]3CCCN4CCC[C@@H]([C@H]34)[C@H]2CCCC(=O)NCC2CC2)n1 do in these assays?
NPR1 antag: -9%

Results for COCCc1noc(C2CN(C(=O)c3cn(C)cn3)C2)n1 ?
NPR1 antag: 8%

Results for CCN1CCN(Cc2cc3ccc(C)cc3nc2-c2ccc(OC)c(OC)c2)CC1 ?
NPR1 antag: -8%

How did O=C(NCCCN1CCc2ccccc2C1)C1CCc2ncc(-c3ccc(F)cc3)n2C1 (centres undefined) do in these assays?
NPR1 antag: -17%

Results for COc1ccc(-c2noc([C@@H]3C[C@H](NS(=O)(=O)c4ccc(C)cc4)CN3C)n2)cc1 ?
NPR1 antag: -25%[70.6 µM]

How did COc1ccc(-c2ccccc2NC(=O)C2CCCN(Cc3ccccc3O)C2)cc1 (centres undefined) do in these assays?
NPR1 antag: 0%

Results for COc1ccc(C(=O)N2CCC3(CC2)NC(=O)N(Cc2ccc(C)cc2)C3=O)cc1 ?
NPR1 antag: 6%

Results for O=C1CCN(C(=O)c2cccnc2)CCCC(C(=O)NCCC2=CCCCC2)CCN1 (centres undefined) ?
NPR1 antag: 3%

Results for COc1cc(F)ccc1-c1ccnc2nc(CC(C)C)nn12 ?
NPR1 antag: -9%

How did CCN(CC)C(=O)[C@@H]1CCC[C@@H](NS(=O)(=O)c2ccccc2)CN(C)C(=O)C1 do in these assays?
NPR1 antag: 1%[70.6 µM]

Results for O=C(Nc1ccnn1C1CCN(Cc2cccc(F)c2F)CC1)c1ccccc1Cl ?
NPR1 antag: 9%

Results for CCOc1ccc(CN(Cc2cccc(Oc3ncccn3)c2)C2CC2)cc1 ?
NPR1 antag: -4%

Results for CC(C)(C)C(=O)N1C[C@@H](COc2cccnc2)[C@H](c2ccccn2)C1 ?
NPR1 antag: 5%

How did CN(Cc1cc2n(n1)CCNC2)Cc1cnc(-c2ccccc2)s1 do in these assays?
NPR1 antag: -1%

How did CN(C)c1nccnc1OC1CCN(C(=O)CCC(=O)c2ccc(F)cc2)C1 (centres undefined) do in these assays?
NPR1 antag: -3%

What do the screens show for `COc1ccc(CCNC(=O)CN2C(=O)NC(c3ccc(C)cc3)C3=C2COC3=O)cc1OC` (centres undefined)?
NPR1 antag: 0%

How did COc1cccc(CNC[C@H]2O[C@H](Cc3cc(CN4CCOCC4)on3)CC[C@@H]2O)c1 do in these assays?
NPR1 antag: 0%[70.6 µM]

How did O=S(=O)(c1ccc(C(F)(F)F)cc1)N1CCCC(Cn2cnc3cccnc32)C1 (centres undefined) do in these assays?
NPR1 antag: -15%

Results for COCc1cn([C@H]2CO[C@H]3[C@@H]2OC[C@H]3O)nn1 ?
NPR1 antag: 6%[70.6 µM]

What do the screens show for `CC(C)CNC(=O)N1CCC(OC2CCN(S(C)(=O)=O)CC2)CC1`?
NPR1 antag: 0%

How did O=C(c1ccsc1)N1CCCn2cc(-c3ccccc3F)nc21 do in these assays?
NPR1 antag: -4%

How did COc1ccc(-c2nc3c(c(=O)[nH]2)CCN(C(=O)c2ccc(OC)cc2OC)C3)cc1 do in these assays?
NPR1 antag: -5%

What do the screens show for `O=C1NCCCCCN(C(=O)c2ccc(Cn3ccnc3)o2)[C@H]2CCC[C@@H]12`?
NPR1 antag: 3%

What do the screens show for `CC(C)(C(=O)NCc1ccccn1)C1CCOCC1`?
NPR1 antag: -6%

Results for CCn1ccnc1C1CCN(C(=O)CC2NC(=O)NC2=O)CC1 (centres undefined) ?
NPR1 antag: -3%

Results for Cc1ccc(C2(O)CCN(c3ncccc3C(F)(F)F)CC2)nc1 ?
NPR1 antag: 0%

Results for Cn1ncc(N2CCC(NC(=O)C3CCOCC3)CC2)cc1=O ?
NPR1 antag: 7%

Results for CN(Cc1ccc2c(c1)CCO2)C1CCc2nn(C)c(=O)n2CC1 (centres undefined) ?
NPR1 antag: 7%

Results for O=S(=O)(c1ccc2c(c1)CCC2)N1CCCC(Cn2c(C3CC3)nc3cccnc32)C1 (centres undefined) ?
NPR1 antag: 0%

What do the screens show for `Cc1cc(=O)n(CC(=O)N2C[C@H](CO)C[C@H](CN(C)C)C2)nc1C`?
NPR1 antag: 2%

What do the screens show for `c1csc(CN2CCn3c(nnc3C3CCCNC3)C2)c1` (centres undefined)?
NPR1 antag: 0%[70.6 µM]

Results for Cn1ccnc1-c1ccc(N2CCC(C(O)Cc3ccccc3)CC2)nn1 (centres undefined) ?
NPR1 antag: inconclusive

Results for CC(=O)N1C[C@@H]2CCCN3CCC[C@@H]([C@H]23)[C@H]1CCCC(=O)NCCCc1ccccc1 ?
NPR1 antag: 0%

Results for CCc1nc2c(c(-c3ccc(Cl)cc3)n1)CN(Cc1cccc(F)c1)CC2 ?
NPR1 antag: -14%

Results for COc1ccc(-c2ccc3nnc(CNC(=O)COc4ccc(F)cc4)n3n2)cc1 ?
NPR1 antag: 2%

What do the screens show for `COc1ccccc1-c1ccc2c(n1)CN(Cc1ccccc1C)C(=O)CO2`?
NPR1 antag: -10%[70.6 µM]

Results for CCn1ccc(C(=O)N2CC(Oc3ccc(-c4nc(-c5ccccc5)no4)cc3)C2)n1 ?
NPR1 antag: -17%

How did COc1ccc(NC(=O)O[C@@H]2CO[C@H]3[C@@H]2OC[C@@H]3NC(=O)Nc2ccc(C(C)C)cc2)cc1 do in these assays?
NPR1 antag: 0%

What do the screens show for `COC[C@@H]1CCCN1Cc1cn(-c2ccccc2)nc1-c1ccc(OC)cc1F`?
NPR1 antag: 9%

What do the screens show for `CC(=O)Nc1cccc(OCc2nnc(C(=O)N3CCC[C@@H]3C(c3ccccc3)c3ccccc3)n2-c2ccccc2)c1`?
NPR1 antag: -18%

Results for CC(=O)N1CCC2(C1)C(=O)N(CCc1ccccc1)c1ccccc12 (centres undefined) ?
NPR1 antag: 34%[activator]

How did COc1ccc2[nH]c(C(=O)N3CCC4(CC3)CC(O)CCO4)cc2c1 (centres undefined) do in these assays?
NPR1 antag: 0%

What do the screens show for `Cc1ccc(NC(=O)N[C@@H]2C=C(C(=O)N[C@@H](Cc3ccc(O)cc3)C(N)=O)C[C@@H](O)[C@@H]2O)cc1`?
NPR1 antag: 1%

Results for COc1ccc(C(=O)N2CCC(Oc3ccccc3)C2)cn1 (centres undefined) ?
NPR1 antag: -15%

How did COc1ccccc1C(=O)NC1CCN(c2cc(-c3cccs3)[nH]n2)CC1 do in these assays?
NPR1 antag: -1%

How did O=C(CN1CC2CC(C1)[C@H]1CCCC(=O)N1C2)NCCc1ccc(Cl)cc1 (some centres undefined) do in these assays?
NPR1 antag: 3%

How did CC1(C(=O)N2CCC(c3ccccc3)CC2)COCc2cnc(Nc3ccccc3)nc21 (centres undefined) do in these assays?
NPR1 antag: inconclusive

What do the screens show for `O=C(NCc1cccs1)c1nc(-c2ccc(F)cc2)c2ccccn12`?
NPR1 antag: 1%

What do the screens show for `CNC(=O)c1ccc2c(c1)OCCN(c1ccccc1)C2`?
NPR1 antag: 1%[70.6 µM]

How did O=C(c1cccs1)N1CCN(Cc2cc(C3CC3)n[nH]2)CC(O)C1 (centres undefined) do in these assays?
NPR1 antag: 8%

Results for C[C@]1(O)CCN(Cc2ccc(-c3ccccc3C#N)o2)C[C@@H]1O ?
NPR1 antag: -16%

How did Cc1cc(C(=O)N2C[C@@H](CO)[C@H](c3ccccn3)C2)c(C)o1 do in these assays?
NPR1 antag: -3%

What do the screens show for `COc1ccc2[nH]c3c(c2c1)CCNC31CCN(C(=O)C2CCCO2)CC1` (centres undefined)?
NPR1 antag: 3%

By substructure, those above containing an NH in an aromatic ring
How did Cn1cc(CN2CC[C@H](c3nc4ccccc4[nH]3)C2)c2ccccc21 do in these assays?
NPR1 antag: -15%[70.6 µM]

Results for CO[C@H]1C(=O)N(C(C)C)[C@H]1C1CCN(C(=O)c2c[nH]c3ccccc23)CC1 ?
NPR1 antag: 4%

What do the screens show for `Cc1cccc(OCC(=O)NC2CCN(C(=O)c3cc4c(=O)[nH]c(C)cn4n3)CC2)c1`?
NPR1 antag: 0%

How did COc1ccc(-c2nc3c(c(=O)[nH]2)CCN(C(=O)c2ccc(OC)cc2OC)C3)cc1 do in these assays?
NPR1 antag: -5%

How did COc1ccc2[nH]c(C(=O)N3CCC4(CC3)CC(O)CCO4)cc2c1 (centres undefined) do in these assays?
NPR1 antag: 0%

How did COc1ccccc1C(=O)NC1CCN(c2cc(-c3cccs3)[nH]n2)CC1 do in these assays?
NPR1 antag: -1%

How did O=C(c1cccs1)N1CCN(Cc2cc(C3CC3)n[nH]2)CC(O)C1 (centres undefined) do in these assays?
NPR1 antag: 8%

What do the screens show for `COc1ccc2[nH]c3c(c2c1)CCNC31CCN(C(=O)C2CCCO2)CC1` (centres undefined)?
NPR1 antag: 3%

From PubChem BioAssay

Not all compounds are listed. The share of hits here may be higher or lower than overall.
